# NPYLR7 agonist – activates Aedes aegypti NPYLR7 receptor; activation, % at 10 µM; actives 0.15% (n = 270,000); HEK293T NPYLR7/Galpha15, GCaMP6s calcium fluorescence; AID 1259423; in the data active = activation above about 40%;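 also: 0% = vehicle and 100% = reference agonist at the receptor; some compounds past the cut are filed as inactive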
# NPYLR7 agonist max-min – further read-out of NPYLR7 agonist, marked with its call; activation, %; measured here: Max-Min RFU normalised activation; some inactives read as strong as hits;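 span of the calcium signal over five minutes; 0% = vehicle and 100% = native peptide agonist; compound fluorescence can raise it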
# An asterisk follows results filed as active.
Structure | NPYLR7 agonist | NPYLR7 agonist max-min
Cc1nc(-c2ccccn2)sc1C(=O)NCC(C)c1ccccc1 (stereo not drawn) | 4 | 2
Cc1cn2c3c(=O)[nH]c(=O)n(C)c3nc2n1-c1ccccc1Cl | -2 | 7
COc1ccccc1-c1cc(C(=O)NC(C)c2ccccc2)n2nc(-c3ccc(Cl)cc3)cc2n1 (stereo not drawn) | 6 | 14
CN1CCN(c2ncccc2CNC(=O)CCN2CCCCCC2=O)CC1 | -4 | -8
Cc1cccc(Cn2cccc2CN(Cc2ccc(C#N)cc2)C2CCCCC2)c1 | 3 | 10
Cc1nn(C2CCCC2)c(=O)c2c1cnn2C(C)(C)C | -1 | 1
COc1ccc(-c2n[nH]c3c2C(c2ccccc2[N+](=O)[O-])N(c2ccccc2)C3=O)cc1 (stereo not drawn) | -9 | -10
CN(C)C(=O)N1CCC(C(=O)N2CCCC(C(=O)c3ccc(C(C)(C)C)cc3)C2)CC1 (stereo not drawn) | 3 | -11
CC(=O)N1CCc2c(nc(C)nc2N(C)CC2CCCCO2)C1 (stereo not drawn) | 6 | 5
C=CCN1C(=O)NC(c2cccc(OCc3ccccc3)c2)C2=C1CN(CCN1CCCC1)C2=O (stereo not drawn) | 17 | 22
CCOC(=O)CN1CCC2(CCCN(C(=O)c3cc(F)ccc3F)C2)C1 (stereo not drawn) | 2 | 0
COCC(=O)N(CCN1CCOCC1)Cc1csc(COc2cc(C)cc(C)c2)n1 | 21 | 30
O=C(Cn1nnnc1CN1CCOCC1)NC(Cn1cccn1)c1ccccc1 (stereo not drawn) | -4 | -5
CN1CCN(C(=O)c2ccc(-c3ccccc3)n2C)C(C)(C)C1=O | 1 | -3
CCc1nc(-c2c(-c3ccccc3)ncn2Cc2noc(C(C)C)n2)c(C)[nH]1 | 1 | 1
CC1(C(=O)NCCC#N)CCN1C(=O)CC(c1ccccc1)c1ccccc1 (stereo not drawn) | 11 | 10
CCOC(=O)c1cc(-c2ccc(Cl)cc2)n(-c2ccc(C(=O)NC3CC3)cc2)n1 | -3 | -8
Cc1ccc(NC2CCCN(C(=O)c3cccc(-n4cnnc4)c3)C2)cc1C (stereo not drawn) | 1 | -4
CC(CNC(=O)NCCn1c(=O)oc2ccccc21)Cn1cccn1 (stereo not drawn) | 4 | 4
COc1ccc(C)c2sc(N3CCN(C(=O)CS(=O)(=O)c4ccc(Cl)cc4)CC3)nc12 | 0 | 0
O=C(CCc1ccc(O)cc1)N1CCOC(c2ccc(Cl)cc2)C1 (stereo not drawn) | 4 | 0
CCN(CC)C(=O)c1ccc(Cn2cc([N+](=O)[O-])cn2)o1 | -2 | -4
COc1cc(NC(=O)CCC2CCCN(Cc3cc(Cl)ccc3O)C2)cc(OC)c1 (stereo not drawn) | 7 | 7
Cc1ccc(C)c(NC(=O)C2(C)CCN2C(=O)C(C)C)c1 (stereo not drawn) | 7 | 5
CC(C)(C)OC(=O)N1CCNc2ccccc2C1 | -1 | -7
CC(C)(O)C#Cc1ccc(C(=O)N2C[C@H](O)[C@@H](N3CCCC3)C2)cc1 | 10 | 7
Cc1cc(OC(=O)CC(c2ccccc2)c2ccccc2)c([N+](=O)[O-])c(=O)[nH]1 | 1 | -1
CC(OC(=O)c1cn2ccccc2n1)C(=O)Nc1ccccc1C#N (stereo not drawn) | 1 | 1
Cc1c(C(=O)NC2CCCC2)sc(=O)n1Cc1ccc(C(C)C)cc1 | 13 | 5
O=C(c1cc(-c2ccc(F)cc2)nc2cc(-c3ccccc3)nn12)N1CCC(n2c(=O)[nH]c3ccccc32)CC1 | 20 | 22

# Some values from the entries so far.
# NPYLR7 agonist with COc1ccc(C)c2sc(N3CCN(C(=O)CS(=O)(=O)c4ccc(Cl)cc4)CC3)nc12 stands at 0
# NPYLR7 agonist with Cc1cccc(Cn2cccc2CN(Cc2ccc(C#N)cc2)C2CCCCC2)c1 stands at 3
# NPYLR7 agonist max-min with Cc1nn(C2CCCC2)c(=O)c2c1cnn2C(C)(C)C stands at 1
# NPYLR7 agonist with CC(C)(O)C#Cc1ccc(C(=O)N2C[C@H](O)[C@@H](N3CCCC3)C2)cc1 stands at 10
# NPYLR7 agonist with CCOC(=O)CN1CCC2(CCCN(C(=O)c3cc(F)ccc3F)C2)C1 (stereo not drawn) stands at 2

# (continued)
Structure | NPYLR7 agonist | NPYLR7 agonist max-min
C1CCN2CC3CN(c4nc(C5CC5)no4)CC3C2C1 (stereo not drawn) | -3 | -9
Cc1ccc2c(c1)c(C1CCN(C(=O)C(Cl)(Cl)Cl)CC1)cn2C | 27 | 19
COc1cccc(C(CN2CCN(C(=O)c3sccc3C)CC2)OCc2cccc(Cl)c2)c1 (stereo not drawn) | 6 | 0
COC(=O)c1ccc(CSc2nnc(-c3ccccc3F)n2-c2ccc(C)cc2)o1 | 4 | 5
O=C(CCN(CCCN1CCOCC1)c1nc(-c2ccco2)nc2ccccc12)NCc1ccco1 | 16 | 19
Cc1ccc(C2(O)CCN(C(=O)CCn3c(C)cccc3=O)CC2)nc1 | 0 | -1
CCCCC1CCC(C(=O)Nc2noc3ncccc23)CC1 (stereo not drawn) | 0 | -1
CC(C)CC(N)c1nc(-c2ncn[nH]2)no1 (stereo not drawn) | 10 | 9
CCc1nc(CN(C)C(=O)c2cnc(C(C)C)nc2C)no1 | -1 | 36
CSc1nc2ccc(NC(=O)c3ccc(Br)cc3F)cc2s1 | -7 | -10
Cc1ccc(Oc2ccc(NC(=O)CCC(=O)OCC(=O)c3cccs3)cc2)cc1C | 14 | 13
Cc1csc2ncnc(-c3ccc(C(C)N4CCOCC4)cc3)c12 (stereo not drawn) | 20 | 15
COc1ccccc1-n1c(C)nnc1SCc1ccc(C(=O)Nc2cccc(C)c2)cc1 | -4 | 5
O=S(=O)(c1ccccc1)N1CCN(Cc2ccc(-c3ccn[nH]3)s2)CC1 | 12 | 7
CCCCc1ncc(CN2CCc3[nH]cnc3C2c2cccc(O)c2)[nH]1 (stereo not drawn) | 5 | 3
CC(C)CCn1c(CN2CCN(c3ccccc3)CC2)nc2c1c(=O)n(C)c(=O)n2C | 0 | 10
CCOC(=O)c1c(NC(=O)Cc2ccccc2)sc(C(=O)Nc2cccc(Cl)c2)c1C | 10 | 19
CC(C)OC(=O)C1=c2/c(=C/c3cccnc3)c(N)c(C#N)n2C(=O)C(c2cccnc2)S1 (stereo not drawn) | 0 | 23
COCCN(Cc1ccccc1C(=O)OC)Cc1cccn1Cc1ccccc1 | 28 | 26
Cc1ccccc1-c1onc(C)c1C(=O)NCc1ccsc1 | 1 | 4
O=C(Nc1ccc(CCO)cc1)c1ccc(CN2CCS(=O)(=O)CC2)cc1 | 15 | 6
CCS(=O)(=O)Oc1ccc(Cl)cc1CN(CCN(C)C)C(=O)C(C)C | 11 | 17
COc1cccc(CC(=O)N2CCOC(C(F)(F)F)C2)c1OC (stereo not drawn) | -3 | -5
OCCn1c(SCc2ccccc2)nc2ccccc21 | 1 | -4
CC(C)CSc1nnc2nc3[nH]c4ccccc4c3nn12 | -4 | -5
CCSc1nc(CC(=O)NCc2cnc(C)cn2)cs1 | 3 | -8
O=C(COCC1CCCO1)N1CCN(C2CCCCC2)C(=O)C1 (stereo not drawn) | -5 | -5
Nc1nccnc1C(=O)N1CCC(c2ccccc2)CC1 | 10 | 11
O=C(COc1ccccc1)Nc1ccc(N2CCC(Cc3ccccc3)CC2)c(C(=O)NCC2CCCO2)c1 (stereo not drawn) | -7 | 4
COc1cccc(CCn2ccnc2-c2nccn2C)c1 | -2 | -5
Cc1c(Cl)cccc1NC(=O)Cn1cnc([N+](=O)[O-])n1 | -9 | -13
Cc1cc2oc(=O)cc(CN(C)C(C)c3ccon3)c2cc1C (stereo not drawn) | 1 | -1
CC1CC2(CCCCC2)NC(C)c2ccccc21 (stereo not drawn) | 16 | 14
CCN1CCN(C(=O)c2ccc(CSc3nnc(C)n3-c3ccc(F)cc3)cc2)CC1 | -2 | 5
CC1CN(C(=O)CN2CCc3sccc3C2c2cccc(F)c2)CCN1C(=O)Nc1ccc([N+](=O)[O-])cc1 (stereo not drawn) | 10 | 1
O=C(NCc1n[nH]c(=S)n1-c1ccc(F)cc1)c1cccc2ccccc12 | -1 | -2
Cc1ccc(NC2(C(=O)NCCc3nc(C)cc(C)n3)CCCC2)cc1 | -4 | -8
Cc1ccc(C(=O)N2CCCCC2CNC(=O)Nc2ccccc2)o1 (stereo not drawn) | 6 | 2
Cc1cc(C(=O)CSc2nnnn2C2CCCC2)c(C)s1 | 2 | 2
Cc1n[nH]c(=S)c2c1cnn2-c1ccc(F)cc1 | -3 | -6
CC1(C)COC(N2c3ccccc3Sc3ccccc32)=N1 | 4 | 3
CCCn1c(CNCc2cccc(F)c2)nc2ccccc21 | 7 | 4
COCc1cc(C)nc(N/N=C\c2cc(OC)ccc2OC)c1C#N | -1 | 0
O=C(CCCO)NCCc1nc2ccccc2[nH]1 | -6 | -6
CN(CCCc1ccccc1)C(=O)c1ccc(NC(=O)C2CCC2)cc1 | 22 | 9
C=Cc1ccc(Cn2c(C)c(C(=O)NCc3cccc([N+](=O)[O-])c3)sc2=O)cc1 | -10 | -9
CC(=O)N1CCN(C(=O)COc2ncnc3sc4c(c23)CCCC4)CC1 | -1 | -2
CCCCn1c(CN2CCCC(OCc3ccccc3)C2)cnc1S(=O)(=O)CC (stereo not drawn) | 9 | -2
CCn1cc2ccc(NS(=O)(=O)c3ccc(Br)c(C)c3)cc2n1 | 10 | 4
CCCc1nccn1-c1cccc(N)n1 | 19 | 14
O=C1C2C3C=CC(C3)C2C(=O)N1CNc1ccccc1Cl (stereo not drawn) | 1 | 0
COCC(=O)N(CCN1C(=O)CSC1c1ccccc1Cl)C(C)C (stereo not drawn) | 33 | 34
C=CCN(C)C(=O)c1ccc(Oc2ccc(OC)cc2)cc1 | -2 | -5
COc1ccc(-c2cc(C(=O)N3CCC(Cn4cnc5cc(C)c(C)cc54)CC3)no2)cc1 | -2 | -6
CC(Cn1cncn1)NCC1CCN(C(=O)C(C)C)CC1 (stereo not drawn) | 9 | 3
NC1CCN(c2ccccc2C(=O)NCc2cccnc2)CC1 | -5 | 6
NC(=O)N1CCC(C(=O)NC2(c3ccc(Br)cc3)CCC2)CC1 | 3 | -10
CCCNC(=O)Nc1ccc(-c2c(-c3ccc(OC)c(OC)c3)nn(-c3cccc(F)c3)c2OC(C)=O)cc1 | 18 | 20
CCOC(=O)CNC(=O)Cn1c(=O)c2c(OCC)ccnc2n(C)c1=O | -3 | -4
Cc1ccc(Cl)cc1N1CCN(c2nc(-c3ccc(F)cc3F)nc3ccccc23)CC1 | 0 | 3

# Following part
Structure | NPYLR7 agonist | NPYLR7 agonist max-min
CS(=O)(=O)N(Cc1ccc(F)cc1F)c1ccc(F)cc1 | 3 | 3
CCn1c(=O)c2ccccc2c2c(O)nc(-c3cccc(C(F)(F)F)c3)n21 | -2 | -4
CCn1c(SCc2c(C)noc2C)nc2sc3c(c2c1=O)CCC(C)C3 (stereo not drawn) | 12 | 19
Cc1cc(NS(=O)(=O)CCc2ccccc2)n(C)n1 | 3 | 0
CCCCSc1nnc2c(n1)OC(c1ccc(C(C)(C)C)cc1)Nc1ccccc1-2 (stereo not drawn) | -4 | -7
Cc1cccc(-c2nc3cc(C)ccn3c2NC2CCCCC2)c1 | -4 | 2
CCc1ccc2c(c1)NC(=O)C2(C)Cc1ccccc1C#N (stereo not drawn) | 4 | 5
CCCN(CCC)C(=O)Cn1ncn2c(cc3sc(CC)cc32)c1=O | 2 | 3
COCCC(=O)N1CCCC(CCc2cccc(OC)c2)C1 (stereo not drawn) | 3 | 0
CC(C)c1ccc(-c2nc(C(=O)N3CCNC(=O)C3)cs2)cc1 | 1 | -1
CCN(CC)c1ncccc1CNc1cnc2ccccc2n1 | 6 | 7
O=C(COc1ccccc1)NNC(=O)c1ccncc1 | 4 | -2
COc1cccc(CC2(CO)CCCN(Cc3ccc4c(NC(C)=O)cccc4n3)C2)c1 (stereo not drawn) | 8 | 11
CCC(C)C(NC(=O)C(C)(C)CCl)C(=O)Nc1nnc(-c2ccc3c(c2)OCO3)s1 (stereo not drawn) | -1 | -1
CN(Cc1nc2ccccc2c(=O)[nH]1)C(=O)CSc1cc(Cl)ccc1Cl | 0 | -2
O=C(c1nc2ccccc2s1)N(CCCN1CCOCC1)c1nc2c(F)cccc2s1 | -2 | -9
Cc1ccc(-n2ncc3c(C)nn(Cc4ccc(F)cc4)c(=O)c32)c(C)c1 | 5 | 2
Cc1c(-c2csc(N)n2)sc2ccccc12 | -1 | 5
COc1ccc2c(C)nc(NC(N)=NS(=O)(=O)c3ccc(C)cc3)nc2c1 | 1 | -4
NC(=O)C1CCN(C(=O)CCCSc2ccc(NC(=O)c3cccs3)nn2)CC1 | -4 | -3
Cc1csc2nc(O)c(C(=O)NCCCOC(C)C)c(=O)n12 | -3 | 21
COc1ccc(-c2nc(CSc3nc(-c4ccccc4)cs3)cs2)cc1OC | 23 | 31
CC1CCC2(CC1)OCC(C(=O)NC(C)c1ccccc1)N2C(=O)c1cccc(Cl)c1 (stereo not drawn) | 5 | 18
Cn1cccc1-c1nnc(SCc2ccc(F)cc2)o1 | -6 | -17
CCN(Cc1nccn1Cc1ccc(C)cc1)C(=O)c1ccccc1F | 8 | 19
Cn1c(=O)c2c(nc3n2CC(c2ccc(F)cc2)=NN3Cc2ccc(F)cc2)n(C)c1=O | 5 | 3
CCOc1ccc(C(C2Sc3nc(C)nn3C2=O)N2CCCC2)cc1 (stereo not drawn) | 0 | -3

# Another view of part of the listing above.
SMILES: CCN(CC)c1ncccc1CNc1cnc2ccccc2n1
  NPYLR7 agonist: 6; NPYLR7 agonist max-min: 7

SMILES: O=C(COc1ccccc1)NNC(=O)c1ccncc1
  NPYLR7 agonist: 4; NPYLR7 agonist max-min: -2

# Entries of single compounds as entered above.
# Entry for `NC(=O)N1CCC(C(=O)NC2(c3ccc(Br)cc3)CCC2)CC1` : NPYLR7 agonist = 3; NPYLR7 agonist max-min = -10
# Entry for `Cc1ccc(-n2ncc3c(C)nn(Cc4ccc(F)cc4)c(=O)c32)c(C)c1` : NPYLR7 agonist = 5; NPYLR7 agonist max-min = 2

# A portion of the library. The share of hits here may be higher or lower than overall.
